SmPrx2 inh = Schistosoma Mansoni Peroxiredoxins (Prx2); hit rate 0.07% among 65,000; Potency, µM; AID 448, 2006; S. mansoni Prx2 activity coupled to TGR/GSH (TGR is thioredoxin glutathione reductase), NADPH fluorescence loss, qHTS; some inactives read as strong as hits; active means full or partial inhibition curve with a strong effect at the top dose; inconclusive means weaker partial or single-point curve; inactive means no accepted curve; note: series up to 57 µM; many of its hits are not listed in these tables
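Prx2 activity was followed as the loss of NADPH fluorescence (ex 365/em 450 nm), read every 30 sec for 8 min after H2O2 start. The enzyme mix (50 nM Prx2, 25 nM TGR, GSH, NADPH; pH 7.4 phosphate buffer) was incubated with compound for 15 min at room temperature first.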
Anthrax LT inh = qHTS Assay for Anthrax Lethal Toxin Internalization | Cells, anthrax lethal toxin internalization, FRET ratio (460/530) | Potency, µM (doses to about 40 µM), for the others: at the top dose activity change, negative = inhibition, hits mostly inhibitors | hit rate 0.67% among 70,000; active = well fitted falling ratio curve with the 530 nm signal flat; inconclusive = other ratio curves, or a change in one channel alone; inactive = flat curves in the ratio and both channels; the % refers to the ratio; note: % is set by controls: 0 for no effect and ±100 for the full control effect; nearly all actives have a fitted effect of over 50% in size; tested in ME-180 cells; beta-lactamase reporter
The depositor's hits bear a star; u = inconclusive; x = not tested or not shown; & = joins results of further samples; [ ] = another dose, or the depositor's remark. Potency is the fitted concentration of half-maximal effect. Some of the compounds tested; count on the stated rates, not on these rows.

SMILES | SmPrx2 inh | Anthrax LT inh
COC(=O)N1CCC2(CC1)CCN(c1cccc(-c3ccccc3)c1)CC2 | >57 | 16.7%
CCOC(=O)C1=C(O)C(=O)N(c2ccc(S(N)(=O)=O)cc2)C1c1ccccc1 (centres undefined) | >57 | x
CSC1=C(C#N)C(CC(C)C)C2=C(CCCC2=O)N1 (centres undefined) | >57 | 3.8%
COC(=O)CSC1=NP(=S)(SCC(=O)OC)N2CCCC2=C1C#N (centres undefined) | >57 | x
CO[C@]1(NC(=O)CSCC#N)C(=O)N2C(C(=O)O)=C(CSc3nnnn3C)CS[C@H]21 | >57&>57 | u
COc1ccc(CCNC(=O)CSc2ncnc3c2oc2ccccc23)cc1OC | >57 | -15.4%
O=C(CC1CCCC1)NCCc1cn2ccccc2n1 | >57 | 7.6%
COc1ccc(S(=O)(=O)N2CCN(CC(=O)Nc3cccc(F)c3)CC2)cc1 | >57 | 14.5%
COCCN1C(=O)c2ccccc2C(C(=O)NCCN(C)C)C1c1ccc(F)cc1 (centres undefined) | >57 | 22.3%
CC(C)Cn1c(SCC#N)nc2ccccc2c1=O | u | 20.3%
O=C1c2ccccc2C(=O)N1Cc1nc(-c2cccnc2)no1 | x | 0.6%
O=C(OCC(=O)c1ccccc1Br)c1ccccn1 | >57 | 17.6%
COC(=O)c1ccc(CSc2nc3ccccc3s2)o1 | >57 | u
COC(=O)c1ccc(NC(=O)COc2ccccc2OC)cc1 | x | -7.7%
CC1(C)CC(=O)C2=C(C1)Oc1ncn(Cc3ccco3)c(=N)c1C2c1ccccc1 (centres undefined) | >57 | x
Cc1ccnc(NC(=O)COc2ccc3oc4c(c3c2)CCCC4)c1 | >57 | -7.5%
COC(=O)c1ccc(C#CC(NP(=O)(c2ccccc2)c2ccccc2)c2ccccc2)cc1 (centres undefined) | >57 | -1.0%
Cn1c(=O)c2c(SCC(=O)N3CCCc4ccccc43)nc(CC(C)(C)C)nc2n(C)c1=O | >57 | 2.3%
Cc1ccc(O)c(C(=O)c2cnn(C(=O)Cc3csc(C)n3)c2)c1 | >57 | 28.7%
Cc1ccc(C)c(NC(=O)CSc2nnc(-c3ccncc3)n2N)c1 | >57 | -0.6%

Record cards (already shown):
`O=C(OCC(=O)c1ccccc1Br)c1ccccn1` reads SmPrx2 inh = >57; Anthrax LT inh = 17.6%
`COc1ccc(S(=O)(=O)N2CCN(CC(=O)Nc3cccc(F)c3)CC2)cc1` reads SmPrx2 inh = >57; Anthrax LT inh = 14.5%
`O=C(CC1CCCC1)NCCc1cn2ccccc2n1` reads SmPrx2 inh = >57; Anthrax LT inh = 7.6%

Rewritten with each value named: 4 of the compounds above.
CO[C@]1(NC(=O)CSCC#N)C(=O)N2C(C(=O)O)=C(CSc3nnnn3C)CS[C@H]21
  SmPrx2 inh = >57&>57
  Anthrax LT inh = u
COc1ccc(CCNC(=O)CSc2ncnc3c2oc2ccccc23)cc1OC
  SmPrx2 inh = >57
  Anthrax LT inh = -15.4%
O=C(CC1CCCC1)NCCc1cn2ccccc2n1
  SmPrx2 inh = >57
  Anthrax LT inh = 7.6%
COc1ccc(S(=O)(=O)N2CCN(CC(=O)Nc3cccc(F)c3)CC2)cc1
  SmPrx2 inh = >57
  Anthrax LT inh = 14.5%

The list continues:
SMILES | SmPrx2 inh | Anthrax LT inh
CN(C)c1ncc2nc(-c3cccs3)c(=O)n(Cc3cccs3)c2n1 | >57 | u
COC(=O)CCCC(=O)N1CCOCCN(C(=O)CCCC(=O)OC)CCOCC1 | >57 | -4.7%
COc1cccc(C(N)CC(=O)O)c1 (centres undefined) | x | -8.9%
CC1=C(C#N)C(=O)NC(C)(C)C1 | >57 | 10.9%
O=C(NCCCN1CCCCCC1)c1ccc2c(c1)NC(=O)C(N1CCOCC1)S2 (centres undefined) | >57 | 13.8%
O=C(c1ccc2c(c1)OCO2)n1nnc2ccccc21 | x | 17.2%
O=C(NCCCCCNC(=O)c1cccnc1)c1cccnc1 | >57 | -15.0%
COc1cccc(-n2nnc3c(=O)n(CC(=O)N4CCCc5ccccc54)cnc32)c1 | >57 | 1.4%
COCCN(CCOC)C(=O)c1cc2sc3ccccc3c2s1 | >57 | -12.3%
O=C(O)[C@@H]1[C@H](C(=O)O)[C@]2(Cl)C(Cl)=C(Cl)[C@@]1(Cl)C2(Cl)Cl | >57 | -5.6%[8 µM]
O=C(O)c1ccc(CSc2nnc(COc3ccc(Cl)cc3Cl)o2)cc1 | >57 | 11.6%
CC1(C)CCC=[N+]1[O-] | >57 | 0.5%
Nn1c(SCC(=O)N2CCCc3ccccc32)nnc1-c1ccccc1 | >57 | 5.7%
CN(C)C(CNC(=O)c1cccc(S(=O)(=O)N2CC3(C)CC2CC(C)(C)C3)c1)c1ccco1 (centres undefined) | >57 | 20.8%
Cc1cc(C(=O)Nc2sc(C)c(C)c2C#N)no1 | >57 | 5.4%
COc1cccc(C(=O)N(CN2CCCC2=O)c2cccc(Cl)c2)c1OC | >57 | 1.0%
C=CCn1c(NC(C)c2cc(Cl)ccc2O)nc2ccccc21 (centres undefined) | >57 | u
Cc1cc2ccccc2c(=O)n1CC(=O)N1CCN(c2cccc(Cl)c2)CC1 | >57 | -2.2%
O=S(=O)(NC1CCCC1)c1ccc(S(=O)(=O)N(Cc2cccs2)CC2CCCO2)cc1 (centres undefined) | >57 | -19.5%
O=C(CNS(=O)(=O)c1cccc2nsnc12)NCc1ccc(Cl)cc1 | >57 | 22.9%
COc1ccccc1NS(=O)(=O)c1ccc(C(=O)OCC(=O)NCc2ccco2)cc1 | >57 | -4.3%
O=C(Cn1ncc2c1-c1ccccc1OC2)Nc1ccc(Cl)cn1 | >57 | u
CS(=O)(=O)N1CCC2(CCN(c3ccccn3)CC2)CC1 | >57 | -0.1%
CCOC(=O)N1CCN(C(=O)CN(c2cc(Cl)ccc2OC)S(=O)(=O)c2ccccc2)CC1 | x | u
C=C1C[C@]23C[C@@]1(O)CC[C@H]2[C@@]12C=C[C@H](O)[C@@](C)(C(=O)O1)[C@H]2[C@@H]3C(=O)O | x | -5.3%
CCOCCCNC(=O)N1CCOCC1 | >57 | 10.4%
COc1ccccc1S(=O)(=O)Cc1ccc(C(=O)NCCN(C)C)o1 | >57 | -12.7%
Oc1cc(O)c2c(c1)O[C@@H](c1ccc(O)c(O)c1)[C@H](O[C@@]1(c3cc(O)c(O)c(O)c3)Oc3cc(O)cc(O)c3[C@H](O)[C@@H]1O)C2 | >57 | u
COc1cc(OC)c2cc(-c3ccncc3)cnc2c1 | >57 | 13.7%
COc1cc(C2C(C#N)=C(N)OC3=C2C(=O)CCC3)ccc1OC(=O)N1CCOCC1 (centres undefined) | >57 | -7.0%
Cc1cccn2c(=O)c3cc(C(=O)NCc4ccco4)c(=N)n(C(C)C)c3nc12 | >57 | u
COc1cc(NS(C)(=O)=O)ccc1Nc1c2ccccc2nc2ccccc12 | >57 | u
O=C(CN1CCC(c2nc3ccccc3s2)CC1)NCc1cccs1 | >57 | -21.8%
CC(CCc1ccccc1)NC(=O)c1ccncc1 (centres undefined) | >57 | -2.8%
Cc1ccc(C)c(Cn2nnc3c(=O)[nH]c(C4CCN(C(=O)c5cccs5)CC4)nc32)c1 | >57 | -10.7%
Cc1cc(C(=O)COC(=O)c2ccc3c(c2)OCO3)c(C)n1Cc1cccs1 | x | u
Cc1nc(NC2CCCCC2)c2nc(-c3ccccc3)n(CCN(C)C)c2n1 | x | -3.1%
O=C(OCc1cc(=O)n2c(n1)sc1ccccc12)c1ccc2c(=O)n3c(nc2c1)CCC3 | >57 | -4.5%
COc1ccc(S(=O)(=O)N2CCCC2C(=O)Nc2ccc(C(C)=O)cc2)cc1 (centres undefined) | >57 | -11.6%
CCCC(C)C1(CC)C(=O)NC(=Nc2ccccc2OC)NC1=O (centres undefined) | >57 | -22.0%
COC(=O)c1cc(Cc2ccc(N)c(C(=O)OC)c2)ccc1N | >57 | u
CCOC(=O)C(NC(=O)CC)(Nc1ccc(S(=O)(=O)Nc2cc(C)on2)cc1)C(F)(F)F (centres undefined) | >57 | 4.2%
Cn1c(C(=O)N2CCC(C(=O)N3CCN(Cc4ccc5c(c4)OCO5)CC3)CC2)cc2sccc21 | >57 | -28.0%
COc1cccc(Nc2nnc(SCC(=O)N3CC(C)OC(C)C3)s2)c1 (centres undefined) | >57 | -5.4%
O=C(C1CCC(=O)N1Cc1ccc(F)cc1)N1CCC2(CC1)OCCO2 (centres undefined) | >57 | 2.8%
Fc1ccc(CN2CCCCCC2)c(F)c1 | x | -15.3%
c1ccc2nc(N3CCOCC3)c(N3CCOCC3)nc2c1 | >57 | -16.6%
CN1c2cc3c(cc2N=C(c2ccc(C(=O)O)cc2)c2ccccc21)C(C)(C)CCC3(C)C | x | 10µM*
CCCc1ccc2c(N)c(C#N)sc2n1 | x | 3.9%
COc1ccc(C2C3=C(CC(C)(C)CC3=O)Oc3ncn4nc(-c5cccnc5)nc4c32)cc1 (centres undefined) | >57 | 2.6%
COc1ccc(CNC(=O)C2CCN(S(=O)(=O)c3cccc4cccnc34)CC2)cc1 | >57 | -4.4%
Cc1c(C(=O)NCc2cccs2)oc2ccc(S(=O)(=O)N3CCOCC3)cc12 | >57 | 5.2%
COc1cccc(-c2nccc(-n3ccnc3)n2)c1 | >57 | u
COCc1cc(=O)n2[nH]c(C)nc2n1 | >57 | u
O=C(Nc1ccncc1)c1c(F)cccc1F | >57 | -5.7%
CS(=O)(=O)N1CCC2(CCCN(c3ccccn3)C2)CC1 | >57 | 19.1%
COCCn1c(=O)cnc2cnc(Nc3ccccc3)nc21 | >57 | -2.1%
CCCCc1ccc(-c2nc(-c3ccncc3)no2)cc1 | >57 | -2.8%
CCCCn1c(CN2CCN(C)CC2)nc2ccccc21 | >57 | 2.2%
COC(=O)c1ccc(NS(=O)(=O)c2cc(C)ccc2OC)cc1 | >57 | u
Going on with the list.
SMILES | SmPrx2 inh | Anthrax LT inh
COc1ccc(OC)c(C2=NOC(C(=O)NCC3CCCO3)C2)c1 (centres undefined) | >57 | -0.4%
O=C(NCc1ccco1)c1ccc2c(=O)n(Cc3ccco3)c(SCC(=O)N3CCCC3)nc2c1 | >57 | 10.3%
CCCn1nnnc1NCc1ccccc1OCc1cccs1 | >57 | -2.6%
CCn1cc(C(=O)NCCC2=CCCCC2)c(=O)c2cc(S(=O)(=O)N(C)C)ccc21 | >57 | -23.2%
COCCCNC(=O)Nc1ccc(F)cc1F | >57 | 13.9%
CC(NC(=O)Nc1ccccc1)C(c1cccs1)N1CCOCC1 (centres undefined) | >57 | -1.4%
CCOc1ccccc1N1CCN(C(=O)c2cccc(-c3ccc(O)cc3)c2)CC1 | >57 | u
Fc1ccc(Nc2ncnc3ccc(-c4ccoc4)cc23)cc1 | >57 | u
FC(F)(F)c1ccccc1-c1nccc(NCCN2CCOCC2)n1 | >57 | 3.4%
Cn1c(=O)[nH]c(=O)c2c1nc(CN1CCOCC1)n2Cc1ccccc1 | >57 | 0.2%
CCOC(=O)C1CCN(C(=O)CN2C(=O)C(CC)Oc3ccccc32)CC1 (centres undefined) | >57 | x
COc1ccc(CNC2CC(=O)N(C)C2=O)cc1 (centres undefined) | >57 | -4.0%
Cn1c(=O)c2c(nc(SCCOc3ccc4ccc(=O)oc4c3)n2C)n(C)c1=O | >57 | 8.2%
Cn1c(CN2CCOCC2)nnc1SCC(=O)Nc1nccs1 | >57 | -12.1%
O=C(CCN1C(=O)c2ccccc2C1=O)Nc1ccccn1 | >57 | 9.9%
ClCBr | x | -0.9%
Cc1ccc(NC(=O)CN(c2ccccc2F)S(C)(=O)=O)cc1 | >57 | 0.0%
CCCCn1c(SCC(=O)NCc2ccco2)nnc1-c1ccco1 | >57 | 3.8%
C[N+]1(C)CCC[C@H]1C(=O)[O-] | >57 | 0.0%[3.58 µM]
Cc1cnc(C(=O)OCC(=O)c2csc(N3CCCCC3)n2)cn1 | >57 | 19.4%
CCn1c(Cc2ccccc2)nnc1SCC(=O)Nc1ccc2c(c1)OCO2 | >57 | 9.4%
Fc1cccc(Cl)c1CSc1nnnn1-c1ccc2c(c1)OCO2 | x | -11.7%
CCn1c(=S)sc2c(=O)[nH]c(C)nc21 | >57 | 4.7%
N[C@@H](CSCc1ccc(I)cc1)C(=O)O | >57 | u
Cc1ccc(-c2noc(CCC(=O)Nc3cc(C)ccn3)n2)cc1 | >57 | 10.8%
O=C(NCc1ccccn1)C1CC(=O)N(C2CCCC2)C1 (centres undefined) | >57 | 7.1%
O=C(Nc1ccc(S(=O)(=O)Nc2nccs2)cc1)C1CCCCC1 | >57 | -14.9%
CNc1nc(N2CCc3ccccc32)ncc1F | >57 | -7.5%
CC12CN3CC(C)(CN(C1)C31CCSCC1)C2=O | >57 | -6.8%
Cc1cc2nc(NC3=NCN(CCCN4CCOCC4)CN3)nc(C)c2cc1C | >57 | -5.3%
CC(=O)N1[C@H](C)C=C[C@]1(Cc1ccccc1)C(=O)NCc1ccccn1 | x | 3.4%
O=C(Nc1ccccc1)N(CCCN1CCOCC1)Cc1cc2cc3c(cc2[nH]c1=O)OCCO3 | >57 | 15.9%
O=C1CN(Cc2ccccc2)C(=NCc2ccco2)S1 | >57 | -20.7%
Cc1ccc(S(=O)(=O)N[C@@H](C)C(=O)N2CCC(C(=O)N3CCC[C@H]3C(=O)O)CC2)cc1 | >57 | 6.7%
